From PubChem
GLA inh pH 4.5 = blocks human alpha-galactosidase A at pH 4.5; P06280; purified enzyme, 4-MU-alpha-Gal fluorescence, pH 4.5; activity change, negative = inhibition, % at 105 µM; 230,000 tested, under 10 active; AID 1467; inconclusive = small, poorly fitted or top-dose-only inhibition, or a rising curve; inactive = flat fitted curve, though single readings scatter; no compound was filed as active;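 also: 0% = full activity with enzyme and -100% = basal without enzyme; dose as in the result columns while the protocol names 77 µM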
Rango complex inh = Rango-importin beta binding inhibition. AID 540263. Rango CFP/YFP FRET sensor + importin beta, 45 min. 340,000 compounds, 0.031% hits. Potency, µM (highest dose often 92.2 µM), without a hit: at the highest dose inhibition of complex formation. Q14974; active = rising FRET ratio curve, often small or poorly fitted; inconclusive = mostly compound fluorescence or quenching in the first reads; inactive = flat curves in all reads;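 also: potency is read from the fitted curve at half-maximal effect; 0% = DMSO wells and 100% = buffer wells lacking importin beta; nearly all actives have a fitted effect of over 15% in size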
Target sequence (Q14974 whole entry, looked up): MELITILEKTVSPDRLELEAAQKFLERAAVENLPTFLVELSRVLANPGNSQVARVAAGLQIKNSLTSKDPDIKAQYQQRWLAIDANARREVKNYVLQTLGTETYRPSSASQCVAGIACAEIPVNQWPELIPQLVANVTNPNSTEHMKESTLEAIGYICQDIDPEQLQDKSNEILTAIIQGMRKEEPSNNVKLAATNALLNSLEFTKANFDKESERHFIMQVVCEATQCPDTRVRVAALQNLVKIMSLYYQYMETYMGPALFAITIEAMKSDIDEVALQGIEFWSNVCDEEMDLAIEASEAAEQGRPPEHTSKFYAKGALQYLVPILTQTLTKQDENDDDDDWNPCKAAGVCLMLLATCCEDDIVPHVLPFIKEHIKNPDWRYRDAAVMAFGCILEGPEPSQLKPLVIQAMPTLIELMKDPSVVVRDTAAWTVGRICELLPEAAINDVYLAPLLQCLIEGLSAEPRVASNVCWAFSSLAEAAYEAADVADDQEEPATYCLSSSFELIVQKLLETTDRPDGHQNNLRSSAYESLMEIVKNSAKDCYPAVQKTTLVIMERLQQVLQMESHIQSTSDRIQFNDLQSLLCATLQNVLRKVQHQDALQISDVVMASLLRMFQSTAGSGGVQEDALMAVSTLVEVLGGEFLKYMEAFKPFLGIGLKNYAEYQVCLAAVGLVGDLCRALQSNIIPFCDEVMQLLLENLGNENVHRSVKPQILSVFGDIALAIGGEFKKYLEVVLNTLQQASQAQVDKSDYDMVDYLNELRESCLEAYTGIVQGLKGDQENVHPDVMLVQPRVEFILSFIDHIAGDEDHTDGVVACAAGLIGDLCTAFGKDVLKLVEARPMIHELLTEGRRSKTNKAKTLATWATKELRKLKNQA
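FRET biosensor (snurportin 1 IBB flanked by EYFP and cerulean), 50 nM, with compound 5 min, then 0.125 microM importin beta in PBS, 1 mM DTT, 0.02% Tween-20, 0.1% BSA. CFP/YFP ratio read after 45 min at room temperature; pre-read flags interference.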
miR-21 reporter = miR-21 reporter, rising signal; HeLa miR-21 FLuc reporter, luciferase, 48 h; 340,000 tested, under 10 active; Potency, µM (titrated, usually from 38.3 µM), for the others: top-dose reporter change, positive = more light; AID 2288; active = well fitted rising curve with a large enough effect; inconclusive = small, poorly fitted or top-dose-only effect; inactive = no such curve, though single readings can be large or run the other way;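 also: % of control where 0% means no effect; miR-21 action dims this reporter so a rising signal means less miR-21 action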
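Luminescence from a firefly luciferase reporter carrying a miR-21 binding site downstream, stably expressed under a CMV promoter in HeLa cells that make miR-21 endogenously, reports miRNA modulation after 48 h compound exposure up to approximately 40uM final.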
Rango dissoc inh = prevents RanGTP from dissociating the Rango-importin beta complex | 340,000 compounds, 0.071% hits | Biochemical FRET Rango-importin beta, RanGTP-induced dissociation | AID 540253 | O95149+P62826 | Potency, µM (series often up to 46.1 µM), for the others: at the top dose activity change, negative = inhibition; active means falling FRET ratio curve, often poorly fitted, with flat reads before Ran was added; inconclusive means other falling curves, or compound fluorescence or quenching; inactive means flat or rising ratio curve;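 also: potency is read from the fitted curve at half-maximal effect; % of control where 0% means no effect; nearly all actives have a fitted effect of over 45% in size; -100% = wells without RanGTP and RCC1; the record marks most hits as doubtful in a second field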
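Recombinant Rango FRET biosensor (EYFP–snurportin 1 IBB–cerulean CFP10) at 0.1 uM premixed with 0.25 uM importin beta in PBS, 1 mM DTT, 0.02% Tween-20, 0.1% BSA. Compound added 5 min; RanGTP-RCC1 (0.6 uM Ran, 2 mM GTP, 0.2 uM RCC1) then triggers release, read at 45 min.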
Active calls of the source: *; ? = inconclusive; / = no result given; & = joins results of further samples. Some of the compounds tested; rates above refer to the full screens.

SMILES,GLA inh pH 4.5,Rango complex inh,miR-21 reporter,Rango dissoc inh
CCOC(=O)c1cc(S(=O)(=O)NCCc2ccc(OC)c(OC)c2)cn1C,/,-0.7%,-4%,43%
C[C@@H]1CN([C@@H](C)CO)C(=O)c2cccc(NC(=O)Nc3ccc(F)cc3)c2O[C@@H]1CN(C)Cc1ccc(Oc2ccccc2)cc1,/,-4.2%,/,-11%
Cc1c(Cl)cccc1NC(=O)CCN1CCN(C)CC1,/,4.8%,-4%,-27%
COCCCN(C(=S)NC(=O)c1ccc(C(C)(C)C)cc1)c1c(N)n(Cc2ccccc2)c(=O)[nH]c1=O,0,-1.7%,-17%,7%
Cc1cccc(N(C(=O)Cn2nnc3ccccc32)C(C(=O)NCc2ccco2)c2ccncc2)c1C (stereo not given),-11,-3.7%,0%,-22%
Clc1ccccc1C1SCC2Nc3ccccc3CN21 (stereo not given),-8,-0.4%,-7%,16%
O=c1cc(CSc2nc(NCc3ccc(Cl)cc3)c3ccccc3n2)nc2ccc(Cl)cn12,/,1.2%,/,2%
Cc1c(NC(=O)COC(=O)Cc2ccc(Cl)cc2)c(=O)n(-c2ccccc2)n1C,2,0.8%,-1%,35%
CCc1cc(C(=O)O)c(NC(=O)C(c2ccccc2)c2ccccc2)s1,-2,-2.2%,-4%,?
Cc1ccc(NC(=O)c2ccccn2)cc1S(=O)(=O)N1CCOCC1,5,-0.4%,-6%,-10%
O=C(O)CCC(=O)OC1CC2CCC1C2 (stereo not given),3,-0.3%,0%,-4%
Nc1ccc(Nc2ccncc2[N+](=O)[O-])cc1,-1,?,3%,-8%
CCOC(=O)C1CCN(C(=O)C2CCN(C(=O)c3ccc([N+](=O)[O-])cc3)CC2)CC1,/,2.2%,-2%,11%
COc1ccc(CC(CC(=O)O)C(=O)Nc2ccc(OC)cc2)cc1 (stereo not given),-15,0.3%,-5%,19%
COC(=O)Cc1c(O)ccn(CCc2ccc(OC)c(OC)c2)c1=O,7,-2.8%,-6%,4%
Cc1noc(C)c1CSCC(=O)N1CCN(c2ccc([N+](=O)[O-])cc2)CC1,3,-0.3%,28%,8%
CC1CCCCN1S(=O)(=O)c1ccc(C(=O)Nc2ccccc2-c2nc3ccccc3s2)cc1 (stereo not given),9,-1.3%,-4%,-14%
CN(CC(=O)NCc1ccc(Cl)cc1)S(=O)(=O)c1cccc2cccnc12,0,-0.3%,-13%,34%
CCc1ccc(NC(=O)CN2C(=O)CSC2=O)cc1,-8,0.6%,-8%,2%
CC(C)(C)OC(=O)C(C)(C)Sc1nnc(N)s1,-15,1.0%,0%,14%
CCOC(=O)c1c(C)[n+]([O-])c2ccc3c(non3O)c12,4,0.0%,4%,-2%
COc1cc(/C=N/NC(=O)C2CC(=O)N(c3ccc(C)cc3)C2)cc(OC)c1OC (stereo not given),/,1.3%,1%,17%
N#Cc1ccc(N2Cc3ccccc3/C2=N/C(=O)Nc2ccc(Cl)cc2)cc1,3,3.7%,-16%,1%
COCCCNC(=O)c1ccc2c(=O)n(Cc3ccc4c(c3)OCO4)c(=S)[nH]c2c1,0,4.3%,-6%,-3%
Cn1c(CNc2cccc(Cl)c2)nnc1SCC(=O)OC1CCCCC1,7,1.2%,-4%,-4%
COCCn1c(SCC(=O)NC2CCCCC2)nnc1-c1ccncc1,/,0.7%,4%,7%
Nc1nc(-c2ccc(F)cc2)cc(C(F)(F)F)n1,0,-2.8%,-2%,-5%
COc1ccc(NC(=O)c2cc3n(n2)C(C(F)(F)F)CC(c2ccc4c(c2)OCO4)N3)cc1OC (stereo not given),3,0.0%,-7%,-5%
COc1cc2c(cc1OC)C(c1ccc(Cl)cc1)=NCC2,-3,-0.3%,0%,-6%
CC(C)CC(=O)NNC(=O)c1ccc(Cl)cc1,5,-3.1%,-10%,-2%
N#CCC(=N)N1CCN(c2ccccc2Cl)CC1,-3,1.9%,-12%,-10%
O=C1C2C3C=CC(C3)C2C(=O)N1c1ccccc1OS(=O)(=O)c1ccccc1 (stereo not given),4,2.8%,-3%,-6%
CCOC(=O)C1(C)NC(c2cccs2)C2C(=O)N(c3ccccc3)C(=O)C21 (stereo not given),6,-1.2%,-1%,3%
O=C(NC1CCC(=O)N(CCOc2ccccc2)CC1)OCc1ccccc1 (stereo not given),/,-0.6%,-2%,25%
COC(=O)CC1C(=O)NCCN1C(=O)c1c(F)cccc1F (stereo not given),/,0.5%,-2%,-1%
Cc1nc2ccc(NC(=O)c3cncc(Br)c3)cc2s1,3,-0.3%,-26%,-11%
COc1ccc(C(O)c2nccc3cc(OC)c(OC)cc23)cc1OC (stereo not given),-4,2.6%,5%,0%
CCC(=O)NCc1nc2ccccc2n1Cc1ccccc1F,-6,2.1%,0%,1%
Cc1ccccc1-c1cc(C(=O)NCc2cccc(Br)c2)n(CC2CC(c3cccnc3)=NO2)n1 (stereo not given),/,?,/,23%
CC(C)Cc1nnc(NC(=O)CCC(=O)NCCc2ccc(Cl)cc2)s1,/,0.7%,0%,0%
COc1ccccc1NC(=O)C1CC(O)CN1C(=O)Oc1ccccc1 (stereo not given),/,-4.7%,3%,6%
COc1ccc(N2CC(C(=O)N/N=C/c3cc([N+](=O)[O-])ccc3O)CC2=O)cc1 (stereo not given),-6,-4.3%,-1%,1%
Cc1ccc(-c2nc3ncccn3c2Nc2ccc3c(c2)OCO3)o1,8,?,-23%,?
Cc1ccc(C)c(-n2c(-c3ccc4c(c3)OCO4)n[nH]c2=S)c1,3,-0.8%,-10%,-1%
CCC(c1nnnn1Cc1ccc2c(c1)OCO2)N1CCN(CC)CC1 (stereo not given),5,-5.2%,-1%,31%
CCCCN(CC)CCCNC(=O)c1ccc(CS(=O)(=O)c2c(Cl)cccc2Cl)o1,/,-2.3%,-6%,19%
CN(CC(=O)Nc1cccc2ccccc12)C(=O)c1ccc(NC(=O)CC#N)cc1,/,-0.5%,/,0%
COc1ccc(NC(=O)C2CC(=O)OC2c2ccccc2)cc1 (stereo not given),-9,-4.6%,-7%,1%
O=C(NC(=S)N1CCN(c2ccc(O)cc2)CC1)c1ccco1,/,-1.9%,/,-9%
Cc1noc(C(=O)Nc2cccnc2Cl)c1Cl,/,1.7%,-12%,0%
COc1ccc(OC)c(NC(=O)NCCCCc2ccccc2)c1,/,0.7%,10%,4%
Cc1cccc(C)c1NS(=O)(=O)c1ccc(-c2cnc(C3CC3)o2)cc1,/,-5.3%,28%,-8%
O=C(COc1ccccc1Cl)NCc1ccco1,-3,-0.1%,-33%,3%
COc1ccccc1NC(=O)C(=O)NCCC1CCCCN1S(=O)(=O)c1ccc(F)cc1 (stereo not given),/,-1.5%,/,-3%
COc1cccc(CNC(=O)CCS(=O)(=O)c2ccc3c(c2)CC(C)N3C(=O)C2CC2)c1 (stereo not given),/,-2.8%,0%&6%,-14%
O=C(Nc1ccccc1)OCCOc1ccc(Br)cc1,/,-1.1%,-4%,9%
COc1ccccc1NC(=O)Cc1csc(NC(=O)c2ccccc2)n1,7,-0.9%,-4%,14%
COC(=O)c1ccc(CS(=O)(=O)c2ccc(F)cc2)o1,/,0.6%,0%,6%
COc1ccc(C(=O)O)cc1S(=O)(=O)Nc1ccccc1Cc1ccccc1,/,0.5%,-1%,19%
COc1ccc(CC(=O)Nc2cccc(-c3ccc4nnc(C)n4n3)c2)cc1OC,9,-0.2%,13%,1%

Some values from the entries so far.
Rango complex inh with `Cc1cccc(C)c1NS(=O)(=O)c1ccc(-c2cnc(C3CC3)o2)cc1` stands at -5.3%
miR-21 reporter with `O=C1C2C3C=CC(C3)C2C(=O)N1c1ccccc1OS(=O)(=O)c1ccccc1` (stereo not given) stands at -3%
Rango complex inh with `O=C(COc1ccccc1Cl)NCc1ccco1` stands at -0.1%
Rango dissoc inh with `Cc1ccc(C)c(-n2c(-c3ccc4c(c3)OCO4)n[nH]c2=S)c1` stands at -1%

Part of the list above, with values under each structure:
Each structure is followed by: GLA inh pH 4.5	Rango complex inh	miR-21 reporter	Rango dissoc inh
CC(C)Cc1nnc(NC(=O)CCC(=O)NCCc2ccc(Cl)cc2)s1
  /	0.7%	0%	0%
COC(=O)CC1C(=O)NCCN1C(=O)c1c(F)cccc1F (stereo not given)
  /	0.5%	-2%	-1%
COc1ccccc1NC(=O)Cc1csc(NC(=O)c2ccccc2)n1
  7	-0.9%	-4%	14%
O=C1C2C3C=CC(C3)C2C(=O)N1c1ccccc1OS(=O)(=O)c1ccccc1 (stereo not given)
  4	2.8%	-3%	-6%
O=C(COc1ccccc1Cl)NCc1ccco1
  -3	-0.1%	-33%	3%

The listing continues.
molecule	GLA inh pH 4.5	Rango complex inh	miR-21 reporter	Rango dissoc inh
CC(C)=CCCC(C)CN1CCC(N2CCC(C(=O)NC(C)C)CC2)CC1 (stereo not given)	10	-4.0%	5%	22%
CCOC(=O)c1cc(CC)sc1NC(=O)C1CC(=O)NN1Cc1ccccc1 (stereo not given)	-7	1.3%	-7%	-8%
CN1C(=O)NC(c2cccc([N+](=O)[O-])c2)C2=C1CC(C)(C)CC2=O (stereo not given)	/	3.5%	-3%	2%
N#Cc1c(C(F)(F)F)cc(-c2ccc(Cl)cc2)[nH]c1=O	?	?	1%	-29%
Cn1cc(/C=C2\SC(=O)N(c3ccccc3)C2=O)c2ccccc21	-4	?	-21%	4%
Cc1cc(C)nc(NS(=O)(=O)c2ccc(NC(=O)c3cc(-c4ccccc4)nc4ccccc34)cc2)n1	-4	-1.4%	14%	-15%
C/C(=N\N1CCN(C2c3ccccc3-c3ccccc32)CC1)c1ccncc1	3	-0.4%	-2%	1%
COc1ccc(C(=O)NCC(=O)N2CCc3ccccc3C2)cc1	6	1.4%	-13%	8%
C#Cc1cccc(-n2nnc(C(=O)OC)c2-c2ccccc2)c1	/	6.0%	1%	10%
CC1(C)CC(NC(=O)COc2ccccc2Cl)CC(C)(C)N1	9	0.8%	-35%	-4%
Cc1ccccc1N(C(=O)c1snc(C(N)=O)c1N)C(C(=O)NCC1CCCO1)c1ccc(N(C)C)cc1 (stereo not given)	/	-4.4%	-2%	5%
CCOc1ccc(C(=O)Nc2cccc(-c3ccc(N4CCOCC4)nn3)c2)cc1OCC	/	6.5%	/	-6%
CCOc1ccc(S(=O)(=O)N2CCC(C(=O)NCc3ccco3)CC2)cc1	/	9.1%	3%	38%
COc1c2c(c(OC)c3c1c(=O)c1ccccc1n3C)OCO2	/	?	/	?
CCn1c(=O)cc(O)c2ccccc21	5	-0.6%	0%	0%
COc1cccc(-c2nc(NCc3ccccc3)c3ccccc3n2)c1O	/	2.0%	10%	3%
CCOC(=O)c1c(NC(=O)CN2CCN(C(=O)c3ccco3)CC2)sc(C)c1C	/	5.5%	-6%	4%
Cc1ccc(S(=O)(=O)N2CC(C(=O)O)=CC[C@H]2c2ccc(Cl)cc2)cc1	/	0.2%	/	1%
S=C(NCC1COc2ccccc2O1)Nc1ccccc1 (stereo not given)	5	1.5%	-6%	1%
COc1cc(/C=N/NC(=O)c2ccc(CSc3nc4ccccc4[nH]3)cc2)cc(OC)c1OC	0	-0.4%	12%	1%
CCc1ccc2oc(C(=O)N3CCN(c4ccccc4OC)CC3)cc(=O)c2c1	/	-0.1%	19%	-1%
CCCCCCc1c(O)nc(SCCN(C)C)[nH]c1=O	-10	-2.3%	8%	16%
